# Bioassay records: PubChem, The Scripps Research Institute Molecular Screening Center
# DDE Tn7 FP inh: disrupts Tn7 cyclic peptide binding to fibrin D-Dimer-E complex; P02675; FP displacement of FITC-Tn7 peptide from fibrin DD(E); 0% = median of compound wells per plate; inhibition, % at 8.3 µM; actives 0.13% (n = 370,000); AID 720508;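 active means inhibition above the mean of compounds falling within the control limits plus 3 SD of them, cut at about 14% in these data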;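 further: 0% = plate median of compound wells and 100% = 10 µM Aha-Tn7 peptide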
#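 System: human fibrin DD(E); quantity: Fibrin-DD(E) at 2 µM final; also added: fluorescent Tn7 probe at 0.1 µM; compound dosing: single nominal test concentration of 8.3 µM per compound; schedule: 10 min preincubation, 3 h with tracer, room temperature; detection: fluorescence polarization of the labelled Tn7 tracer; repeats: one replicate per compound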
# SIAE primary: human SIAE inhibition, primary screen | Q9HAT2 | SIAE FP-Rh probe binding, fluorescence polarization | inhibition, % at 9.66 µM | actives 0.69% (n = 370,000) | AID 1053197;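 active means inhibition above a cutoff: mean of compounds within the control limits plus 3 SD of those, cut at about 17% in these data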;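 further: 0% = plate median of compound wells and 100% = probe without SIAE protein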
# Target sequence (Q9HAT2 whole entry, looked up): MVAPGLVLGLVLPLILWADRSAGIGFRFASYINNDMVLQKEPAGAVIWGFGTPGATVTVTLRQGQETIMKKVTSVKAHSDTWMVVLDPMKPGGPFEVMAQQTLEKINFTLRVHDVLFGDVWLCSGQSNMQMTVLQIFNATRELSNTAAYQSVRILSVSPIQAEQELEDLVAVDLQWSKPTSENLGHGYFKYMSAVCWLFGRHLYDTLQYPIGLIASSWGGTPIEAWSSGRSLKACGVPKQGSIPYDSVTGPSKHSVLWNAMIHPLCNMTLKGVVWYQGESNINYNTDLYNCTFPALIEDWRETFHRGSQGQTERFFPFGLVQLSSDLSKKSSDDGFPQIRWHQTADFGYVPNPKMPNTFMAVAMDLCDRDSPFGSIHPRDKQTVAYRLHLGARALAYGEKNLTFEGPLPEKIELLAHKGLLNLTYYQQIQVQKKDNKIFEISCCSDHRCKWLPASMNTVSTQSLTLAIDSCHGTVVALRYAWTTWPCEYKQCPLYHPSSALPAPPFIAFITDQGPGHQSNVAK
# PRMT1 FP inh: inhibitors of human PRMT1 | Q99873 | recombinant PRMT1, activity-based probe fluorescence polarization | inhibition, % at 2.79 µM | actives 1.3% (n = 370,000) | AID 652257;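 active means inhibition above about 21% made by adding two undisclosed values, limit read from the data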
# mABHD4 FP: inhibitors of mouse ABHD4. inhibition, % at 8.92 µM. actives 0.54% (n = 370,000). purified mABHD4, FP-Rh probe fluorescence polarization. AID 720543;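 active means inhibition exceeding the mean over every tested compound plus 3 SD, cut at about 30% in these data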;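 further: 0% = plate median of compound wells and 100% = S159A mutant with DMSO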
#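 Assay system: Wild-type mouse ABHD4 protein | Medium: HEPES pH 7.0 buffer, 150 mM NaCl, 0.01% Pluronic F-127 | Incubation: Enzyme–compound pre-incubation 45 min, then probe 60 min, both 25 °C | Technique: Fluorescence polarization with parallel and perpendicular emission, 525/598 nm | Evaluation: % inhibition of FP-Rh probe binding versus controls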
# PG9 Ab binder: small molecules binding HIV-1 gp120 antibody PG9; TR-FRET gp120-PG9 antibody binding; actives 0.43% (n = 360,000); inhibition, % at 6.7 µM; in the data active means inhibition above about 8.5%
# TDP2 inh: TDP2 (human) inhibition, absorbance primary screen; O95551; recombinant TDP2, T5PNP hydrolysis, p-nitrophenol absorbance 415 nm; inhibition, % at 12.8 µM; actives 0.34% (n = 370,000); AID 720702;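 active means inhibition above the mean of all tested compounds plus 3 SD, set per campaign, cut at about 25% in these data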;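 further: 0% = DMSO with enzyme and 100% = buffer with substrate but no TDP2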
# Target sequence (O95551 whole entry, looked up): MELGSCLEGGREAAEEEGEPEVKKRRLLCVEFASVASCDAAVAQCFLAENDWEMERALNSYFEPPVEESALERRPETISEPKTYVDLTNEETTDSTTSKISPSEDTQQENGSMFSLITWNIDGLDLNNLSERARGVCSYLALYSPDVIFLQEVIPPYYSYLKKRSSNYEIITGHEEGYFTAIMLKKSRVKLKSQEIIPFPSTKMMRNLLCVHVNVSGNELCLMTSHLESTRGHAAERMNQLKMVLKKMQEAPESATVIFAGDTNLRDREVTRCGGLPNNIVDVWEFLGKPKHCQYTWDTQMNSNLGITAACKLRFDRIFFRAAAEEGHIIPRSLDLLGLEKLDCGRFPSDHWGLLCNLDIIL
#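 Evaluation: % inhibition relative to enzyme-containing and enzyme-free wells. Material: recombinant human TDP2. Benchmarks: enzyme-free and DMSO wells. Timing: enzyme reaction with compound for 2 h at 37 °C. Compound dosing: 12.8 µM only. Measured by: p-Nitrophenol epi absorbance. Reagent: T5PNP substrate at 5 mM, a TopII-DNA adduct mimic. Replication: single well per compound.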
# TCR-CD3 inh: blocks the human TCR-CD3 interaction | TAMRA-labeled TCR probe fluorescence, biochemical | actives 0.37% (n = 360,000) | inhibition, % at 9.4 µM; in the data active means inhibition above about 19%;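 further: recombinant mutant TCR 2C K166C tagged with TAMRA read by polarization; 0% = receptor in buffer alone and 100% = receptor with positive control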
# LEDGF integ inh: blocks HIV-1 LEDGF/p75-dependent DNA integration; TR-FRET IN-LEDGF/p75 DNA integration, Eu/Cy5; inhibition, % at 3.7 µM; actives 0.64% (n = 370,000); AID 743269;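 active means inhibition above the screen-wide mean plus 3 SD, cut at about 13% in these data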;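 further: signal is the Cy5 over europium emission ratio at 671 and 618 nm; 0% = plate median of compound wells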
# UHRF1 MBD2 ctr: blocks human UHRF1 binding to methylated DNA | Q96T88 | UHRF1 binding to methylated oligo, TR-FRET | inhibition, % at 4.4 µM | actives 0.75% (n = 370,000) | AID 687016; in the data active means inhibition above about 21%;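 further: UHRF1 SRA domain binding a hemimethylated CpG hairpin DNA probe; 0% = median of test compound wells and 100% = reference inhibitor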
# * hit, by the source's call. A portion of the library; the hit share may differ from the screen's.
SMILES,DDE Tn7 FP inh,SIAE primary,PRMT1 FP inh,mABHD4 FP,PG9 Ab binder,TDP2 inh,TCR-CD3 inh,LEDGF integ inh,UHRF1 MBD2 ctr
Cc1ccc(C(=O)NNC(=O)c2ccccc2-n2cccc2)cc1,-6,3,-4,-1,0.2,-4,-1,3,1
CC1CN(C(=O)COC(=O)Cc2c(F)cccc2Cl)CC(C)O1 (stereo unspecified),1,4,-5,1,-1.0,7,1,3,2
CCNC(=S)N1CCC(NC(=O)c2ccco2)CC1,2,6,1,4,0.2,-12,1,-6,1
Clc1ccc(-n2nnnc2-c2cnc(-c3ccccn3)nc2-c2cccs2)cc1,7,-8,-1,-14,-2.6,-11,7,7,5
O=C(CSc1cn[nH]n1)Nc1ccccc1F,3,2,2,0,0.6,2,-2,0,-2
CCC(NS(=O)(=O)c1c(C)[nH]c(=O)[nH]c1=O)C12CC3CC(CC(C3)C1)C2 (stereo unspecified),1,11,-1,-10,0.9,-8,2,0,0
O=C(Nc1ccnn1C1CCN(C/C=C/c2ccccc2)CC1)c1ccccc1,0,6,-2,3,2.0,9,-3,1,-4
O=C1Nc2cc(C(=O)N3CCOCC3)ccc2S/C1=C\c1ccccc1,-6,5,2,0,-0.6,-27,-7,1,2
COc1cnc(-c2ccccn2)nc1Sc1ccc(F)cc1,-8,-3,1,7,-1.8,-5,2,9,1
O=C(Nc1ccccc1Oc1ccccc1)c1cccc([N+](=O)[O-])c1,0,-4,-3,-11,-2.7,-15,0,3,1
Cc1nn(Cc2ccccc2Cl)c(C)c1NC(=O)Cn1nc([N+](=O)[O-])c(Cl)c1C,0,0,2,2,-0.3,6,7,0,-2
COc1ccc(Oc2coc3cc(OC(=O)/C=C/c4ccccc4)ccc3c2=O)cc1,-3,1,1,5,-0.5,-3,-3,-1,0
COc1cc(OC)c(OC)cc1CNC(=O)c1ccc(COc2ccccc2)cc1,1,1,1,3,-1.5,2,10,1,-4
C[C@H](NC(=O)c1nc[nH]c1C(=O)NC1CCN(C(=O)OC(C)(C)C)CC1)C(=O)OCc1ccccc1,2,-3,-2,-9,-1.4,0,1,-3,-2
C/C(=C\C(=O)c1ccccc1)Nc1ccc(Cl)c(Br)c1,7,-2,-1,3,-2.5,4,5,-1,-3
COc1cccc(/C=C/C(=O)OCC(=O)NCC2CCCO2)c1 (stereo unspecified),-3,2,-2,3,0.7,1,6,2,-1
Cc1ccc(S(=O)(=O)CC(=O)c2cc3cccc(C)c3oc2=O)cc1,-1,0,-1,11,-0.2,5,3,-2,1
O=C(NCCc1c[nH]c2ccccc12)/C(=C\c1cccnc1)NC(=O)c1cccs1,1,1,-2,7,0.7,12,-4,0,-2
Cc1[nH]c(=O)[nH]c(=O)c1S(=O)(=O)Nc1cccc(C(F)(F)F)c1,-9,0,-4,-2,-1.6,15,-3,2,-1
N#C/C(=C/c1ccc(F)cc1)C(N)=S,1,5,19,7,-1.7,1,-1,6,-8
CCOC(=O)C1CCN(C(=O)c2ccc3c(c2)NC(=O)/C(=C\c2ccc(C)cc2)S3)CC1,1,-7,3,8,-1.4,5,3,-4,-1
C/C(=C\C(=O)c1ccc(Br)cc1)Nc1cccc(Cl)c1,-2,6,0,2,-1.6,-5,-1,1,15
CCCCC1=CC2=CC(=O)C(C)(OC(=O)CC)C(=O)C2=CN1C1CCCC1 (stereo unspecified),-11,7,1,9,-1.2,10,14,0,-6
O=C(NCc1ccco1)C1CC(=O)N(c2ccc(Cl)cc2)C1 (stereo unspecified),4,-4,-1,-2,0.3,2,16,-2,1
Cc1ccc(N2C(=O)C3CCCN3C2=S)cc1C (stereo unspecified),-5,-5,0,3,-2.7,-5,5,5,3
O=[N+]([O-])c1cc(-c2nnc(Nc3ccc(O)cc3)c3ccccc23)ccc1N1CCOCC1,-11,7,0,0,-3.0,10,7,-2,-4
CCOc1ccccc1N1C(=O)CC(N(O)c2ccccc2)C1=O (stereo unspecified),2,5,4,1,-0.6,-9,-2,-3,-1
COc1ccc(NC(=O)N2CCCC2C(=O)Nc2cccc(C)c2C)cc1 (stereo unspecified),-1,1,-1,-2,-2.5,-24,-15,2,3
COc1ccccc1C(=O)n1nc(-c2ccc(Cl)cc2)nc1N,-4,-4,-2,-2,0.2,4,2,3,-2
COC(=O)C1=NN(c2cccc(C)c2)C2C(=O)N(c3ccccc3OC)C(=O)C12 (stereo unspecified),3,-5,4,8,-0.7,7,-3,0,1
CN(c1ccccc1)S(=O)(=O)c1ccc(C(=O)OCC(=O)NC(N)=O)cc1,-8,-4,-2,4,-1.4,-12,2,5,0
O=C(Nc1ccc2oc(=O)ccc2c1)c1ccc(-c2cccc(Cl)c2)o1,3,-85,-6,-10,0.6,5,3,-1,-1
CC(C)COc1ccc(-c2nnc(-c3ccncc3)o2)cc1,1,3,1,1,-0.7,4,-2,-3,2
C=CCSc1nc2sc3c(c2c(=O)n1CC)CCC3,-1,4,4,-1,0.8,-4,-11,-8,4
CSCCC(NC(=O)c1ccco1)C(=O)NC1CCC(C)CC1 (stereo unspecified),2,-4,-3,1,0.4,-2,4,-2,-3
O=C1CCC(=O)N1c1nc2n(n1)C(c1ccccc1)C=C(c1ccc(Br)cc1)N2 (stereo unspecified),12,5,9,1,0.8,11,-2,-2,-3
CCOc1ccccc1NC(=O)c1cccc(N2C(=O)CCC2=O)c1,6,0,-1,2,-4.5,8,4,-2,0
O=C(NC1CCCCNC1=O)c1ccco1 (stereo unspecified),2,-1,-3,1,0.5,14,1,-3,0
C=CC[C@@H]1Cc2c(Br)ccc(Br)c2[C@@H](CC=C)N1,2,3,2,7,-1.2,0,3,-4,3
O=C(NNC(=O)c1ccccc1-n1cccc1)c1ccccc1,-1,0,1,5,-0.1,1,-4,-1,0
Cc1nnc(SCC(=O)NCCOc2ccc(Cl)cc2)n1-c1ccccc1,0,5,-2,-2,1.2,-11,-3,-2,3
CC(=O)Nc1ccc(N=Cc2ccc(OCc3ccccc3)cc2)cc1,-8,-12,-2,-4,-3.9,-19,5,1,1
COc1ccc(/C=C/C(=O)OCC(=O)NC2CCCC2)c(OC)c1,-5,0,1,-10,-1.8,-16,0,3,2
O=C(Nc1ccc(O)c(-c2nc3ccccc3o2)c1)C1(c2ccc([N+](=O)[O-])cc2)CCCC1,-5,-2,3,-15,-0.7,-10,9,3,-5
COc1ccc(-c2ccc(S(=O)(=O)n3nc(OC(=O)c4cccs4)cc3N)cc2)cc1,5,-14,-6,-2,1.9,-3,3,1,0
COc1ccccc1NS(=O)(=O)c1cccc(C(=O)N/N=C/c2c(CO)cnc(C)c2O)c1,-4,4,3,-4,-2.5,4,36*,-9,-4
COc1cccc(NC(=O)c2ccc(NS(=O)(=O)c3cccs3)cc2)c1,6,-4,13,1,1.1,5,-13,-3,2
CC(Cc1ccccc1)C(=O)N1CCN(C)CC1 (stereo unspecified),1,-7,0,1,-1.7,3,1,0,0

# Look-ups from the results shown:
# Reading of CCOc1ccccc1NC(=O)c1cccc(N2C(=O)CCC2=O)c1 in mABHD4 FP: 2
# Reading of O=C(NC1CCCCNC1=O)c1ccco1 (stereo unspecified) in PRMT1 FP inh: -3
# Reading of O=C(NNC(=O)c1ccccc1-n1cccc1)c1ccccc1 in UHRF1 MBD2 ctr: 0
# Reading of COc1ccc(-c2ccc(S(=O)(=O)n3nc(OC(=O)c4cccs4)cc3N)cc2)cc1 in PRMT1 FP inh: -6
# Reading of COc1cccc(NC(=O)c2ccc(NS(=O)(=O)c3cccs3)cc2)c1 in PG9 Ab binder: 1.1
# Reading of C=CC[C@@H]1Cc2c(Br)ccc(Br)c2[C@@H](CC=C)N1 in DDE Tn7 FP inh: 2

# (list continues)
SMILES,DDE Tn7 FP inh,SIAE primary,PRMT1 FP inh,mABHD4 FP,PG9 Ab binder,TDP2 inh,TCR-CD3 inh,LEDGF integ inh,UHRF1 MBD2 ctr
CN(C)CCN(C(=O)CN1C(=O)c2ccccc2C1=O)c1nc2cc3c(cc2s1)OCO3,2,5,11,6,1.8,9,-5,-2,2
Oc1ccccc1-c1nnc(COc2ccc(Cl)cc2Cl)o1,-6,2,-1,5,1.6,1,15,0,-2
CC(=O)Oc1ccc(C(=O)Nc2ccccc2NC(=O)c2ccc(OC(C)=O)cc2)cc1,2,-8,-1,-6,-2.0,5,2,0,0
COc1cc2sc3cc(NCc4ccc5c(c4)OCO5)ccc3c(=O)c2cc1OC,-5,-26,5,-39,-0.4,-6,-6,1,-11
O=C(CSc1nccc(=O)[nH]1)N1c2ccccc2CCc2ccccc21,4,0,6,6,-0.7,2,-4,-1,5
COc1ccc(-c2cnnn2-c2ccc(NC(=O)c3ccco3)cc2)cc1OC,-6,0,-4,2,-1.1,-1,-7,1,4
CCC(=O)N1C(C(=O)O)CSC1c1ccc(OC)cc1 (stereo unspecified),3,0,5,2,0.4,-11,-4,0,0
Cc1sc(NC(=O)C2CC(Cl)=CCC2C(=O)O)c(C#N)c1C (stereo unspecified),0,1,3,-2,-2.4,-9,-5,4,2
CC(C)(CN1CCN(Cc2ccccc2)CC1)NS(=O)(=O)c1ccccc1,-9,-7,-1,-7,-0.1,-20,-3,1,22*
C/C(CC(=O)NC1CCCCC1)=N\NC(=O)COc1ccc(C)cc1Br,3,2,-3,-5,-3.5,0,4,4,1
Cc1cc(C)c2oc(=O)cc(CN3CCN(Cc4ccc5c(c4)OCO5)CC3)c2c1,-6,-1,0,5,-0.1,3,3,-2,2
CC(C)(CN1CCN(c2ccccc2)CC1)NS(=O)(=O)c1ccccc1,0,5,1,0,0.5,7,1,-6,1
COc1cccc(NCc2cc(=O)oc3cc(C)c(C(C)C)cc23)c1,0,5,3,4,-1.2,1,-4,-5,3
Fc1ccc(Oc2ccc3nnc(C(F)(F)F)n3n2)cc1,4,1,-1,-3,-0.8,-6,3,-2,-2
CCn1c(SCC(=O)Nc2ccccc2Cl)nnc1C1CC1,0,0,-1,7,-3.0,-1,9,2,-2
CCN1CCc2c(sc(NC(=S)NC(=O)c3ccccc3)c2C#N)C1,6,1,73*,5,-1.4,1,2,0,5
O=C(COC(=O)/C=C/c1ccccc1Cl)NC(=O)NC1CCCC1,3,-1,1,-1,-0.4,0,5,-2,-1
O=C(/C=C/c1cn(-c2ccccc2)nc1-c1cccs1)NCCN1CCOCC1,-2,-25,9,-21,-0.1,-22,-3,0,4
CCCCC1=CC2=CC(=O)C(C)(OC(=O)CC)C(=O)C2=CN1Cc1ccc2c(c1)OCO2 (stereo unspecified),-5,0,1,19,0.7,3,2,-1,-5

# Reformatted with values ahead of the structure: two of the compounds above
DDE Tn7 FP inh,SIAE primary,PRMT1 FP inh,mABHD4 FP,PG9 Ab binder,TDP2 inh,TCR-CD3 inh,LEDGF integ inh,UHRF1 MBD2 ctr,compound
3,-1,1,-1,-0.4,0,5,-2,-1,O=C(COC(=O)/C=C/c1ccccc1Cl)NC(=O)NC1CCCC1
-2,-25,9,-21,-0.1,-22,-3,0,4,O=C(/C=C/c1cn(-c2ccccc2)nc1-c1cccs1)NCCN1CCOCC1
